# rRNA inh HTS – reduced GFP signal of wild-type E. coli, primary screen, bacterial rRNA inhibitor project, GFP/RFP fluorescence, OD600, single point; E. coli WT GFP vs humanized-ribosome RFP mutants, 24 h; hits give low values; DMSO median 0, no signal -100; GFP signal change (wild-type ribosome), % (concentration not given with the values); actives 1.6% (n = 350,000);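 active = significant combined selectivity score with lowered wild-type GFP, culture density cut under 30%, mutant RFP and density less affected; inactive = any of these conditions unmet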; note: one replicate is shown; some compounds called inactive have numbers as strong as hits
# ALR inh – inhibitors of human ALR sulfhydryl oxidase, primary screen, biochemical, H2O2 detection, HRP-luminol luminescence, single point; actives 3.8% (n = 290,000); inhibition, % (test concentration not listed); FAD-linked sulfhydryl oxidase ALR (Homo sapiens), P55789; purified ALR, DTT oxidation;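 active = mean and each replicate at 75% or more; inconclusive = only one of the two met; inactive = neither met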;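 note: stock transfer was 7.5 nL into about 7.5 µL; 0% = neutral wells and 100% = wells with inactivated enzyme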
# Target sequence (P55789 whole entry, looked up): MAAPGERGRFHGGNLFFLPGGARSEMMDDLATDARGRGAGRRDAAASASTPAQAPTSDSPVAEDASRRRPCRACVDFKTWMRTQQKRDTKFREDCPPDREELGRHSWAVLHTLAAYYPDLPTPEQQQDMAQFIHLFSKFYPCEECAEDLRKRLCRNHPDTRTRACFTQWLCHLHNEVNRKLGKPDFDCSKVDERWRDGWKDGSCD
# E coli growth – E. coli growth inhibition, primary screen, OD600. OD600 absorbance (test concentration not listed). Escherichia coli growth, 23 h; hits give low values. actives 0.21% (n = 330,000);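 active = OD600 absorbance below the run mean of sample wells minus 3.6 SD, in any replicate, cut at about 0.56 in these data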;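 note: stock transfer was 300 nL into about 60 µL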
# FGF22 binding – binders of human FGF22 protein, primary screen, FGF22 synaptogenesis inhibitor project, biophysical, thermal shift, single point; recombinant FGF22 thermal shift, SYPRO orange fluorescence; percent of sucrose octasulfate shift, DMSO zero; calls only at 9.99 µM; actives 1.5% (n = 340,000); AID 651658, 2012;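 active = melting point raised past a set limit in the mean and every replicate; inconclusive = no clear call; three in four hits are not shown here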
# Target sequence (Q9HCT0 whole entry, looked up): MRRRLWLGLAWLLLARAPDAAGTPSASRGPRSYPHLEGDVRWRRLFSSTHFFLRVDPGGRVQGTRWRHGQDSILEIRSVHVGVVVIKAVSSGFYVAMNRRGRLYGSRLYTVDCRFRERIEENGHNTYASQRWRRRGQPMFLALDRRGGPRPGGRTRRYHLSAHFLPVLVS
# AF4-AF9 inh – inhibitors of AF4 peptide binding to AF9, primary screen, biochemical, AlphaScreen, biotin-AF4 peptide, FLAG-AF9, single point; Protein AF-9 (Homo sapiens), P42568; inhibition, % at 10 µM; actives 0.47% (n = 350,000);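 active = every replicate reaching a set inhibition limit, whatever the replicate mean, cut at about 25% in these data; inconclusive = mean inhibition reaches that limit but some replicates miss it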;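 note: 0% = plate neutral control median and 100% = total signal loss; the record names both 10 and 1 µM as test concentration; the first replicate is given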
# Vif A3G – inhibitors of Vif binding to APOBEC3G peptide, primary screen, biochemical, TR-FRET, GST-Vif 1-94, biotin-A3G peptide, dose response retest (AID 1117319) | TR-FRET GST-Vif / biotin-A3G peptide binding; higher % means a stronger effect; test concentration not given here; strong numbers were not always called active | inhibition, %, or IC50 in µM where a hit was titrated | Virion infectivity factor (Human immunodeficiency virus type 1 group M subtype B (isolate … | actives 0.57% (n = 260,000);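 active = above the screen mean plus three standard deviations and confirmed in dose response; inconclusive = results disagree or hit not tested in dose response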;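 note: Vif residues 1-94 fused to GST binding biotinylated APOBEC3G peptide 110-148; 0% = full assay without inhibitor and 100% = GST in place of GST-Vif; retest series ran down from 100 µM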
# HNF4A DNA FP – change in binding of human HNF4A to DNA, primary screen, biochemical, fluorescence polarization, FITC-DNA | Hepatocyte nuclear factor 4-alpha (Homo sapiens), P41235 | 1 h | activity change, % at 10 µM | actives 0.3% (n = 360,000) | AID 1224865, 2016; in the data active = activity change above about 30%, passing the limit was not always enough;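 note: controls were the assay level and a saturating level of protein; the project sought stronger binding though the title names inhibitors; some compounds called inactive have numbers as strong as hits; positive values seem to mean higher polarization but the record does not say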
# Target sequence (P41235 whole entry, looked up): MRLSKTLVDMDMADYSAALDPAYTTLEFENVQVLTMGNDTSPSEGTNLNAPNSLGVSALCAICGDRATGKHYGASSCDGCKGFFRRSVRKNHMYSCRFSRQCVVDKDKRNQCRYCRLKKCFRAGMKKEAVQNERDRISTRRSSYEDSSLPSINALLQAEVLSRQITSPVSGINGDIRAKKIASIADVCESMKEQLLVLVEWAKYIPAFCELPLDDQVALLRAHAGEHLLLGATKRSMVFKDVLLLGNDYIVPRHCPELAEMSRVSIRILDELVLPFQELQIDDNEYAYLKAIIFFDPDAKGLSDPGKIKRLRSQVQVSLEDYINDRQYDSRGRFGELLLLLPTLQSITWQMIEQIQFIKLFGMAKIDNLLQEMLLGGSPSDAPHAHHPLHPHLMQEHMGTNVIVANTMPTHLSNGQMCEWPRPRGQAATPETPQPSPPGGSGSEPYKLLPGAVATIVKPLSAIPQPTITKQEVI
# rRNA inh HTS OD600 – also measured in rRNA inh HTS; calls as there; OD600 change, %; measured here: OD600 growth;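 optical density of the mix in the first replicate; 0 = DMSO median and -100 = no signal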
# rRNA inh HTS RFP – also measured in rRNA inh HTS; calls as there; RFP signal change, %; measured here: RFP humanized mutant strains;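 first replicate; 0 = DMSO median and -100 = no signal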
# Starred values were filed as active, the others as inactive; i = inactive; ? = inconclusive; . = no result given; & = joins results of further samples; ! = not active in a repeat.
SMILES,rRNA inh HTS,rRNA inh HTS OD600,rRNA inh HTS RFP,ALR inh,E coli growth,FGF22 binding,AF4-AF9 inh,Vif A3G,HNF4A DNA FP
CCc1ccc(/C=C/C(=O)c2cc(Br)ccc(=O)c2O)cc1,.,.,.,35.8,0.692,.,.,?,-1.0
O=C(O)CNc1ccc(S(=O)(=O)C(F)(F)F)cc1[N+](=O)[O-],-3.5,4.7,-1.4,-3.3,0.662,i,1.2,.,-6.3
Cc1nc(-c2cccc(S(=O)(=O)N3CCCC(C)C3)c2)cs1 (stereo not drawn),.,.,.,.,0.652,.,.,4.2%,-3.4
C[C@H]1CN([C@@H](C)CO)C(=O)c2cc(NS(=O)(=O)c3ccccc3)ccc2O[C@@H]1CN(C)Cc1ccc2c(c1)OCO2,-0.7,-3.2,1.6,.,.,i,1.3,.,.
COc1ccc(CCNC(=O)CSc2nnc(-c3ccc(F)cc3)o2)cc1OC,4.3,-1.9,2.0,-0.3,0.675,i,-2.6,0.3%,-1.2
Cc1cc(NC(=O)COC(=O)c2ccccc2Cl)no1,2.1,4.2,1.0,1.8,0.614,i,-0.6,.,4.2
COc1ccc(-c2ccccc2)cc1NCc1ccc(OC)c(OC)c1,.,.,.,.,0.758,.,.,2.4%,1.0
N#Cc1c(-c2ccc([N+](=O)[O-])cc2)nc2n(c1=O)CCS2,7.7,14.7,2.8,-6.7,0.676,i,-6.9,0.0%,3.3
COc1ccc(/C=C/C(=O)NCC(=O)N/N=C(/CCC(=O)O)c2ccccc2)cc1,0.2,1.2,-2.8,.,.,i,11.2,-1.2%,-1.0
Cn1ncc2c(O/N=C(\N)c3ccc(C(F)(F)F)cc3)ncnc21,-17.0*,0.4*,1.9*,1.1,.,i,2.0,-7.2%,-1.3
O=C(CN1CCN(S(=O)(=O)c2ccc(Br)cc2)CC1)N/N=C/c1ccco1,.,.,.,18.1,.,.,.,?,13.9
O=C(Nc1ccc2c(c1)OCO2)N[C@@H]1C=C[C@@H](CC(=O)N2CCN(c3ccccc3)CC2)O[C@H]1CO,-4.8,-6.2,1.6,.,.,i,2.3,.,.
COc1ccc(Oc2c(C)oc3cc(OC(=O)N4CCOCC4)ccc3c2=O)cc1,.,.,.,-5.7,0.627,.,.,7.1%&-1.7%,3.5
O=C(c1ccc(F)c(S(=O)(=O)N2CCOCC2)c1)N1CCN(c2ccc(F)cc2)CC1,6.5,4.5,1.4,16.2,0.714,i,-0.8,-5.7%,5.1
Cc1ccc(C(=O)NC(=C(Cl)Cl)S(=O)(=O)c2ccc(C)cc2)cc1,.,.,.,98.7*,0.704,.,.,-3.4%,-2.2
Cc1ccsc1C(=O)N1CCc2ccccc2C1,-3.5,-6.0,-0.7,0.3,0.673,i,-3.9,.,-0.3
CC(C)NC(=O)CN1CCN(Cc2nc(-c3cccs3)no2)CC1,19.4,12.5,1.5,3.0,0.773,i,-0.7,3.1%,-0.2
CCOC(=O)Cn1ccc(NC(=O)c2ccc3c(c2)OCO3)n1,2.7,-1.2,-5.9,0.4,0.7,i,-2.3,-6.0%,-0.7
O=CN1N=C(c2ccccc2)CC1c1ccc(Cl)cc1 (stereo not drawn),-17.4,-10.6,-4.4,7.9,.,i,-3.0,2.9%,4.9
CCNC(=O)C1CCCN(C(=O)c2cccc(OC(F)(F)F)c2)CC1 (stereo not drawn),9.4,20.9,-2.6,.,.,i,1.6,.,4.7
CCOC(=O)C1CCCN(Cc2ccccc2OCC)C1 (stereo not drawn),.,.,.,-5.4,0.712,.,.,-5.5%,-1.5
Cc1ccc(-n2nnnc2SCc2ccc(C(=O)O)cc2)cc1C,-10.9,-5.0,-7.4,-6.7,0.667,i,-0.9,0.5%,3.3
COc1ccc(-n2c(SCC(=O)Nc3cc(C)on3)nc3ccccc3c2=O)cc1Cl,13.2,25.6,-1.1,-4.4,0.72,i,-1.7,-18.6%,-5.3
COc1cc(/C=C2/SC(N)=NC2=O)ccc1Oc1ccc([N+](=O)[O-])cc1[N+](=O)[O-],.,.,.,-6.0,0.659,.,.,.,0.2
O=C(C[C@H]1C[C@H]2c3cc(NC(=O)Cc4ccncc4)ccc3O[C@H]2[C@@H](CO)O1)NCc1ccccn1,1.0,3.2,-0.4,.,.,i,0.0,.,.
COC(=O)N(C)C[C@H]1OCc2cnnn2CCCC(=O)N([C@H](C)CO)C[C@H]1C,-2.0&4.5,-3.8&-4.7,11.3&1.4,.,.,i,-7.7&0.3,-5.4%,0.9
Nc1nonc1-n1nnc(C(=O)N/N=C/c2ccc3c(c2)OCO3)c1CSc1ccccc1,2.5,7.8,0.8,-3.4,.,i,0.1,.,-4.4
CCc1cc2c(SCC(=O)Nc3ccc(Cl)cn3)ncnc2s1,25.9,21.1,-3.2,.,.,i,-0.3,-50.5%,7.1
Cc1noc(C(F)(F)F)c1C(=O)NNC(=O)c1ccccc1,17.4,12.8,2.1,-2.3,0.714,i,-2.9,6.5%,-0.6
C/C(=N/N1CCN(c2ccccn2)CC1)c1ccc([N+](=O)[O-])cc1,.,.,.,2.5,.,.,.,1.8%,0.0
O=CN1CCN(C=O)C(O)C1O (stereo not drawn),30.5,18.8,3.1,.,0.69,i,-1.8,2.1%,2.1
CCOC(=O)c1cnc(Nc2nc3ccccc3o2)nc1C,.,.,.,-5.3,0.735,.,.,23.4%,0.6
COc1ccc(OC)c(C(=O)c2ccc(C(=O)c3cc(OC)ccc3OC)cc2)c1,11.3,0.4,1.2,-1.8,0.688,i,-10.7,32.1%,-2.3
CSc1ccccc1NC(=O)CCc1ccccc1,4.0,-7.7,-3.3,.,0.663,i,-1.4,-9.1%,-2.8
CC(C)Oc1cccc(C(=O)NC(=S)Nc2ccccc2N2CCOCC2)c1,12.2,12.0,-1.6,-1.2,0.726,i,3.4,2.9%,-2.4
CCN(C(=O)CSc1nc(C)cc(=O)[nH]1)C1CCCCC1,2.8,5.1,-1.1,.,0.71,i,-4.7,.,0.5
O=C(CSc1ccc(-c2cccnc2)nn1)Nc1ccc(F)c(F)c1,.,.,.,-1.0,0.699,i,-1.5,-11.3%,-7.0
Cn1c(Cc2ccccc2)nnc1SCC(=O)N1CCN(c2ccccc2)CC1,.,.,.,52.8,0.721,.,.,-3.9%,-0.5
Cn1cnnc1SCc1nnc(-c2ccccc2Br)o1,.,.,.,.,0.632,.,-0.6,1.1%,5.9
COC(=O)c1cc(S(=O)(=O)Nc2cccc(-c3cnco3)c2)oc1C,.,.,.,-3.5,0.662,.,.,-2.1%,0.2
C[C@H](NC(=O)C[C@@H]1C=C[C@H](NC(=O)CN2CCOCC2)[C@H](CO)O1)c1ccccc1,2.1,0.1,2.4,.,.,i,-0.4,.,.
O=C(Nc1ccc(-c2nc3ccccc3[nH]2)cc1)c1ccccc1NS(=O)(=O)c1ccc(F)cc1,.,.,.,.,0.717,.,.,18.2%,0.2
Cn1c(-c2ccccc2)cc(=NNS(C)(=O)=O)c2cc(S(=O)(=O)O)ccc21,27.7,23.6,4.5,.,.,i,-5.1,-3.4%,2.3
Cc1nc(-c2ccc(S(=O)(=O)Nc3cc(F)ccc3F)cc2)co1,-3.1,-1.9,-1.9,-1.6,0.686,i,-2.7,.,4.8
O=C(O)CNS(=O)(=O)c1ccc(C2CCCCC2)cc1,6.0,4.5,0.5,11.0,0.652,i,-3.0,-2.7%,-0.8
O=C(NCc1ccc2c(c1)OCO2)c1cccc(C(=O)NCc2ccc3c(c2)OCO3)c1,.,.,.,-19.2,0.682,.,.,0.1%,-1.9
COc1ccc(S(=O)(=O)N(C)C[C@@H]2OCCCC[C@@H](C)Oc3ccc(NC(=O)Cc4ccccc4)cc3C(=O)N([C@H](C)CO)C[C@@H]2C)cc1,2.2,5.3,-2.1,.,.,i,-2.9,.,.
O=c1nc(-c2ccccc2)c2cc(Cl)ccc2[nH]1,.,.,.,0.0,0.628,.,.,-0.1%,3.4
COc1ccc2nc(NC(=O)CSc3nnc(C)s3)sc2c1,.,.,.,-25.6,0.753,.,.,-2.5%,-1.0
COc1ccc(N2CCN(C(=O)c3ccc4c(=O)n5c(nc4c3)CCCCC5)CC2)cc1,-5.0,-24.1,-2.5,50.7,0.729,i,-2.2,.,-0.6

# Going on with the list:
SMILES,rRNA inh HTS,rRNA inh HTS OD600,rRNA inh HTS RFP,ALR inh,E coli growth,FGF22 binding,AF4-AF9 inh,Vif A3G,HNF4A DNA FP
CCCNC(=O)Nc1ccccc1C(=O)Nc1ccc(OC)cc1,.,.,.,-2.7,0.677,.,.,17.3%,1.9
Cc1ccc(NS(=O)(=O)c2ccc3c(c2)CCC(=O)N3)cc1C,-22.8*!,-5.8*!,2.0*!,-2.1,0.718,i,3.6&0.3,0.6%,-3.1&-1.7
Cc1noc(C)c1C(=O)OC(C)C(=O)Nc1ccc(C(N)=O)cc1 (stereo not drawn),1.8,2.2,-1.7,0.1,0.66,i,1.9,-7.4%,3.2
Cc1ccc(OCC(=O)c2c[nH]c3ccccc23)c([N+](=O)[O-])n1,-20.2,-43.6,4.8,-7.3,0.64,i,-5.6,21.1%,2.4
CC1(C)Cc2c(sc(/N=C/N3CCCCC3)c2C#N)C(C)(C)N1,5.1,-3.9,-4.9,-4.8,.,i,3.3,-0.4%,-0.8
CCN=C1SC(C(=O)Nc2ccccc2)CC(=O)N1CC (stereo not drawn),.,.,.,-14.4,0.695,.,.,3.8%,-3.6
COc1ccc(NC(=O)N(C)C[C@@H]2OCCCC[C@@H](C)Oc3ccc(NC(=O)Nc4ccc(F)cc4)cc3C(=O)N([C@@H](C)CO)C[C@H]2C)cc1,-5.0,1.5,-2.9,.,.,i,-3.1,.,.
CC(C)C#Cc1ccc2c(c1)O[C@H](CN(C)C(=O)c1ccncc1)[C@H](C)CN([C@@H](C)CO)S2(=O)=O,-2.4,-10.3,0.6,.,.,i,0.0,.,.
COC(=O)C1=C(C)N(Cc2ccc(C(F)(F)F)cc2)C(=NCc2ccc3c(c2)OCO3)NC1c1cccc(Cl)c1 (stereo not drawn),-17.4,-33.7,-3.4,.,.,i,2.7,.,.
COc1cccc(OCc2cc(/C=N/n3cncn3)ccc2OC)c1,8.8,10.1,3.4,-4.9,.,i,-0.5,12.4%,4.1
COc1ccc(NC(=O)CSc2nnc(CNC(=O)COc3ccc(Cl)cc3)o2)cc1,10.6,14.1,-2.0,-6.8,0.666,i,-1.2,9.8%,0.1
Cc1noc(C)c1CSCC(=O)N(C)CC(=O)Nc1ccc(Cl)cc1,3.5,-6.3,-1.8,-2.8,0.707,i,0.2,-0.1%,-0.9
c1ccc(COc2ccc(OCCCCN3CCCCC3)cc2)cc1,.,.,.,7.5,0.692,.,.,2.6%,-0.2
COc1cc(/C=N/NC(=O)c2ccc(CN3C(=O)c4cccc5cccc3c45)cc2)cc(OC)c1O,-13.2,0.3,6.1,-2.9,.,i,-1.1,?,2.1
COc1ccc(CCNC(=O)CSc2nc(C)cs2)cc1,.,.,.,.,0.681,i,-1.3,.,-0.5
O=C(c1cc2cc(F)ccc2[nH]1)N1CCN(c2ccc(F)cc2)CC1,1.7,-11.3,-2.0,-51.2,0.701,i,-5.3,3.5%,-5.5

# Bioassay records from PubChem.

# Not all compounds are listed; rates above refer to the full screens.
